High-throughput results as filed in PubChem BioAssay.
VDR inhibitor: vitamin D3 receptor (human) inhibition; Potency, µM, for inactives: max response, negative = inhibition, hits mostly inhibitors; actives 0.93% (n = 400,000); VDR-SRC2-3 peptide fluorescence polarization, 2 h; AID 504847; P11473; active = well fitted inhibition curve with a large enough effect; inconclusive = small, poorly fitted or top-dose-only effect, or another doubt; inactive = no such curve, though single readings can be large or run the other way; note: series mostly up to about 120 µM
Target sequence (P11473 whole entry, looked up): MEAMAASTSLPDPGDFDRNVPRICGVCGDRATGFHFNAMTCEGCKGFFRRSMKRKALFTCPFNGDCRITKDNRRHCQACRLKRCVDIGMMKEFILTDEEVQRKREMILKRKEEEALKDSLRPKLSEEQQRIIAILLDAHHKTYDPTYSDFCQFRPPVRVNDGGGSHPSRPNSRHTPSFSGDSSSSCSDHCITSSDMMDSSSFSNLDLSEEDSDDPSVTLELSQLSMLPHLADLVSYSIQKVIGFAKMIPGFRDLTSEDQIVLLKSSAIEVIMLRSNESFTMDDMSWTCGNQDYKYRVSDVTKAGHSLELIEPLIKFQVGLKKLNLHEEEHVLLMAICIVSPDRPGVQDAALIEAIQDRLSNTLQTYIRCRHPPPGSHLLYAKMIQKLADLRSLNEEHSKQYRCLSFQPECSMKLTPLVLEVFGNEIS
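Reagent solutions, kept cold and dark, are dispensed first; compounds are then pinned in at 23 nl, plates briefly spun, and incubated 2 h at ambient temperature. Inhibition of VDR–SRC2-3 peptide binding is read by fluorescence polarization.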
* marks the source's active call; other numbers are inactive results; ? = inconclusive; & = joins results of further samples. % is set by controls: 0 for no effect and ±100 for the full control effect; potency is the fitted concentration of half-maximal effect. Some of the compounds tested; rates above refer to the full screens.

SMILES	VDR inhibitor
Cc1cc(=O)[nH]c(-c2ccccc2)n1	17.3%
CS(=O)(=O)Cc1cc(N2CCCC2)nc(-c2ccccc2)n1	2.3%
Cc1ccc(C)c(C(=O)CCC(=O)N2CCN(c3cccc(C(F)(F)F)c3)CC2)c1	2.8%
CC(=O)NCCOc1nc(N(C)C)nc(N2CCOCC2)n1	7.1%
C=CCn1c(SCc2ccccc2F)nc2cc(C(=O)O)ccc2c1=O	-12.9%
Cn1nccc1C(=O)NCc1ccc2c(c1)CCN2C(=O)c1ccccc1	16.8%
CC(C)CC1NC2(C(=O)N(C)c3ccccc32)C2C(=O)N(C(C)C)C(=O)C12 (centres undefined)	8.1%
O=C(NC(=S)Nc1ccccc1[N+](=O)[O-])c1ccccc1	-6.5%
O=C1c2cccnc2C(=O)N1c1cccc([N+](=O)[O-])c1	16.4%
CCCc1cc(=O)oc2cc(OCc3ccc(C(=O)O)o3)ccc12	-1.4%
CCCSCCCNC(=O)CC1Oc2ccccc2NC1=O (centres undefined)	-13.9%
COc1ccccc1/C=N\N=C(\N)c1ccccn1	1.6%
COc1cccc(-c2nc(N(C)C)c3ccccc3n2)c1	56.2µM*
Cc1c(C2(O)CCCCC2)[nH]c2cnccc12	-10.6%
Cc1ccc(C(=O)c2ccccc2C(=O)Nc2ccccc2)cc1	-12.8%
CC(NC(=O)C(NS(=O)(=O)c1cccc2nsnc12)C(C)C)c1ccccc1 (centres undefined)	-15.4%
Cc1c(CC(=O)O)c(=O)oc2cc(OCc3ccc(F)cc3Cl)ccc12	-13.8%
O=C1c2ccccc2C(=O)N1c1ccc(S(=O)(=O)N2CCOCC2)cc1	3.0%
Cc1ccc(C(=O)CSc2nc(-c3ccccc3)nc3c2CCCC3)cc1	-10.7%
COc1ccc(C(=O)/C=C/Nc2cc(C)on2)c(OC)c1	-9.0%
CSc1sc(C(=O)NNC(=O)c2ccc(Cl)cc2)c2c1C=CCC2	4.6%
COc1ccc(N(CC(=O)Nc2ccc3c(c2)OCCO3)S(=O)(=O)c2cccc(C)c2)cc1	13.7%
Cc1nc(C(=O)NC2CCOCC2)sc1C1(C)CC(c2cccc([N+](=O)[O-])c2)=NO1 (centres undefined)	1.7%
CCOC(=O)c1ccc(NC(=O)c2nc[nH]c2C(=O)N2CCN(c3ccccc3)CC2)cc1	-16.5%
CS(=O)Cc1cc(Oc2ccccc2)nc(-c2ccncc2)n1 (centres undefined)	2.5%
CCN(C(=O)COC(=O)c1cnc(C)cn1)c1c(N)n(Cc2ccccc2)c(=O)[nH]c1=O	22.4%
COc1ccc2[nH]c3c(=O)n(Cc4ccc(C(=O)N5CCCC5)cc4)c(=S)[nH]c3c2c1	?
O=c1[nH]c(N/N=C/c2ccccc2Br)nnc1-c1ccccc1	-4.0%
NS(=O)(=O)c1ccc(CCNC(=O)CCS(=O)(=O)c2ccc(Br)cc2)cc1	-25.9%
O=C(Oc1ccccc1N1C(=O)C2CC=CCC2C1=O)c1ccc(Br)cc1 (centres undefined)	-9.5%
Cc1ccc(/C=C/S(=O)(=O)NCC(=O)OCC(=O)Nc2c(F)cccc2F)cc1	-6.8%
O=C(NCc1nc2ccccc2[nH]1)C1=C[C@H](C2CC2)C[C@H](OCCCCO)O1	-5.8%
Cc1ccc(-c2nnc(Nc3ccc(F)cc3)c3ccccc23)cc1S(=O)(=O)N1CCN(C)CC1	-19.3%
CN1CCN(S(=O)(=O)c2ccc3c(c2)CC(=O)N3C)CC1	0.5%
CCOc1ccc2[nH]c(=O)c(CN(Cc3ccco3)C(=O)c3cccc(F)c3)cc2c1	19.8%
CC(C)OCCCN1C=C2C(=O)C(C)(OC(=O)CCc3ccccc3)C(=O)C=C2C=C1c1ccc(C#N)cc1 (centres undefined)	-11.4%
CCOC(=O)COc1ccc(Br)cc1/C=C/c1[nH]c(=O)[nH]c(=O)c1[N+](=O)[O-]	14.1µM*
Cc1ccc(OCCC(=O)Nc2ccc(S(=O)(=O)Nc3cc(C)nc(C)n3)cc2)cc1	3.9%
O=C(O)CCCC(=O)NNc1nc(-c2ccccc2)c2cc(Cl)ccc2n1	-17.2%
CCCCCCCCNC(=O)c1cccnc1SCC(=O)Nc1ccc(OC)cc1OC	-16.3%
CCCCCc1n[nH]c2c1CCCC2	-5.3%
O=S(=O)(Cc1ccccc1)CS(=O)(=O)Cc1ccccc1	13.5%
Cc1ccc(-n2c(Cc3cccn3C)nnc2SCC(=O)Nc2ccc3c(c2)OCO3)cc1	-16.9%
CCOC(=O)c1c(N)nn(C(=O)C(C)C)c1-c1ccccc1	2.4%
COc1ccc(C(=O)NC2CC2)cc1OC1CCN(Cc2cnn(C)c2C)CC1	-22.1%
Cc1ccccc1N(CC(=O)N1CCc2ccccc2C1)S(C)(=O)=O	9.2%
CC(C)C(=O)N1CCN(c2ccc(NC(=O)c3ccc(Br)o3)cc2)CC1	-8.1%
CC(=O)Oc1ccc(-c2cccc(C(=O)OCC(=O)N(C)c3ccccc3)c2)cc1	-11.7%
Cc1ccccc1NC(=O)CSC1=Nc2ccccc2C2=NC(Cc3ccccc3)C(=O)N12 (centres undefined)	2.1%
CCOC(=O)c1cc(C(C)=O)c(=O)[nH]c1C	-2.5%
Further entries follow.
SMILES	VDR inhibitor
Cc1ccc(N(Cc2cc3ccc(C)cc3[nH]c2=O)C(=O)c2cccs2)cc1	5.4%
Cc1nnsc1NC(=O)OCc1ccccc1Cl	2.5%
C=C1CC(Cn2cc(Br)c(=O)[nH]c2=O)(c2ccc(-c3ccccc3)cc2)OC1=O (centres undefined)	?
O=C(c1ccccc1Oc1ccc([N+](=O)[O-])cc1)N1CCOCC1	2.6%
Cc1ccc(C)c(CN2C(=O)c3ccccc3S(=O)c3ccc(C(=O)NCc4ccccc4)cc32)c1 (centres undefined)	-3.9%
Cc1cc(C)c(C#N)c(SCc2ccccc2F)n1	-5.7%
O=C(c1cccc(Cl)c1)N1CCN(CCc2ccccn2)CC1	-8.5%
N/C(CC(=O)Nc1cc(C(F)(F)F)ccc1Cl)=N\O	-15.3%
Cc1ccc(C)c(OCC(=O)Nc2ccccc2C(=O)NC2CC2)c1	89.1µM*
CN(C)S(=O)(=O)c1ccc(NC(=O)CN2CCCC2c2ccc3c(c2)OCCCO3)cc1 (centres undefined)	-12.8%
CCCCCCCCCn1c2c(c(=N)c3c1CCC3)CCC2	-24.2%
O=C(COC(=O)c1ccc(F)c(S(=O)(=O)N2CCOCC2)c1)NCc1ccc(Cl)cc1	-2.8%
CCCCn1c(N)c(N(CC(C)C)C(=O)c2ccc(-c3ccc(C(C)=O)cc3)o2)c(=O)[nH]c1=O	-11.6%
N#Cc1cccc(NC(=O)C2CCN(c3cnccn3)CC2)c1	11.5%
Cc1cc(NC(=O)c2ccc3c(c2)OCCO3)ccc1NC(=O)c1cc2ccccc2o1	-13.4%
COc1cccc(-c2ccc3c(N)c(C(=O)Nc4ccc(Cl)cc4F)sc3n2)c1	-3.6%
Cc1ccc[n+](-c2nc3ccccc3nc2[N-]S(=O)(=O)c2ccccc2)c1	11.2%
CC1=C(C(=O)OCc2ccccc2)C(c2cccc(Cl)c2Cl)NC(=O)N1CCCCCC(=O)O (centres undefined)	-20.7%
Cc1ccc(S(=O)(=O)N2Cc3ccccc3CC2C(=O)Nc2ccc3c(c2)OCO3)cc1 (centres undefined)	8.3%
C[C@H](CO)N1C[C@H](C)[C@@H](CN(C)S(=O)(=O)c2cccs2)Oc2c(NC(=O)C3CC3)cccc2C1=O	3.4%

The final 5 entries of the section before come first, to join the parts.
SMILES	VDR inhibitor
COc1cccc(-c2ccc3c(N)c(C(=O)Nc4ccc(Cl)cc4F)sc3n2)c1	-3.6%
Cc1ccc[n+](-c2nc3ccccc3nc2[N-]S(=O)(=O)c2ccccc2)c1	11.2%
CC1=C(C(=O)OCc2ccccc2)C(c2cccc(Cl)c2Cl)NC(=O)N1CCCCCC(=O)O (centres undefined)	-20.7%
Cc1ccc(S(=O)(=O)N2Cc3ccccc3CC2C(=O)Nc2ccc3c(c2)OCO3)cc1 (centres undefined)	8.3%
C[C@H](CO)N1C[C@H](C)[C@@H](CN(C)S(=O)(=O)c2cccs2)Oc2c(NC(=O)C3CC3)cccc2C1=O	3.4%
CCOC(=O)c1c(C)nc(C)c(C(=O)OCC)c1-c1cccc(N)c1	11.4%
Cc1occc1C(=O)Nc1ccc(OCc2ccccc2)cc1	-15.2%
CC(=O)Nc1ccc(OS(=O)(=O)c2c(C)cc(C)cc2C)cc1	6.4%
COCCNC(=O)NC12CC3(C)CC(C)(CC(C)(C3)C1)C2	-13.2%
c1ccc(COc2cccc(CN3CCN(c4ccccn4)CC3)c2)cc1	6.2%
Cc1cc(NC(=O)COC(=O)CCNS(=O)(=O)c2c(Cl)cccc2Cl)no1	-2.9%
COc1ccc(OC)c(NC(=O)CSc2nccn2-c2cc(C)cc(C)c2)c1	12.5%
CCn1c(O)c(/C=N/N=C/c2ccc(OC)cc2)c2cc(C3=NNC(=O)CC3)ccc21	-13.8%
CN1CCN(S(=O)(=O)c2cccc3nsnc23)CC1	-19.7%
CCC(C)NC(=O)c1ccc(NC(=O)C2CCCO2)cc1 (centres undefined)	27.0%
Cc1nc(C)c(Oc2ccc(Cl)cc2Cl)c(=O)[nH]1	-8.4%
CNC(=O)CSc1nnc(COc2ccc(Cl)cc2)n1CCOC	-16.3%
Cc1ccc(NS(=O)(=O)c2ccc3c(c2)CCCN3C(=O)C2CCC2)c(C)c1	-5.8%
NC(=O)NC(=O)COC(=O)c1cccc(NS(=O)(=O)/C=C/c2ccccc2)c1	2.8%
COc1ccccc1-c1nnc(SCc2ccccn2)n1C	3.2%
CC(C)(C)c1ccc(Oc2ccc(NC(=O)C3CC=CCC3C(=O)O)cc2)cc1 (centres undefined)	2.9%
COc1ccc(-n2ccnc(SCC(=O)NC3CCCCC3)c2=O)cc1	-18.7%
CCOC(=O)c1c(C)[nH]c2cc(Br)c(O)cc12	10.3%
Fc1ccc(C2CCCN2Cc2nc(-c3cnccn3)no2)cc1 (centres undefined)	-4.0%
Cc1c(C(=O)NCCc2ccc(S(N)(=O)=O)cc2)cccc1[N+](=O)[O-]	-7.0%

As entered above:
Entry for NC(=O)NC(=O)COC(=O)c1cccc(NS(=O)(=O)/C=C/c2ccccc2)c1 under VDR inhibitor: 2.8%
Entry for COc1ccc(-n2ccnc(SCC(=O)NC3CCCCC3)c2=O)cc1 under VDR inhibitor: -18.7%
Entry for CNC(=O)CSc1nnc(COc2ccc(Cl)cc2)n1CCOC under VDR inhibitor: -16.3%

Next section.
SMILES	VDR inhibitor
Cc1ccc(-n2c(=S)[nH]c3[nH]ncc3c2=O)cc1	-2.3%
CC(=O)NN1C(=O)/C(=C\c2ccc(Cl)cc2)SC1=S	-19.4%
CCN(C(=O)COC(=O)C1CCN(S(=O)(=O)c2ccc3c(c2)OCCO3)CC1)C1CCCCC1	-18.1%
Cc1ccsc1CN(C(=O)c1ccc([N+](=O)[O-])cc1)C1CCS(=O)(=O)C1 (centres undefined)	-11.0%
Cc1nn(CCC(=O)Nc2cc(F)ccc2F)c(=O)c2nn(-c3ccccc3)c(C)c12	11.2%
O=C(NCCc1ccccc1F)C1CCCN1S(=O)(=O)c1ccccc1 (centres undefined)	4.0%
Cc1sc2nc(C3CC3)nc(N3CCN(C(=O)c4ccccc4F)CC3)c2c1C	-15.5%
CC(C)[C@H](NC(=O)c1ccccc1)C(=O)OCC(=O)Nc1sccc1C(N)=O	11.3%
CCn1c(=N)c(C(=O)NCC2CCCO2)cc2c(=O)n3cc(C)ccc3nc21 (centres undefined)	-0.3%
CCOc1ccccc1NC(=O)Cc1cccs1	12.3%
Cc1ccccc1C(=O)N1CCN(S(=O)(=O)c2ccccc2)CC1	-12.9%
CC(O)[C@H]1CNCCN1CCc1cccc(F)c1 (some centres undefined)	1.3%
CC1(C)CC(=O)C2=C(C1)N(CC1CCCO1)C(=O)NC2(C(F)(F)F)C(F)(F)F (centres undefined)	-11.1%
CN(C)C(=O)/N=N/C(=O)N(C)C	6.31µM*
CS(=O)(=O)NCCCNc1ccc(Cl)cc1[N+](=O)[O-]	-16.0%
Cc1cc(C)cc(NC(=O)Cn2c(=O)n(Cc3ccc4c(c3)OCO4)c(=O)c3oc4ccccc4c32)c1	3.6%
CN(C)n1cccc1/C=C(\C#N)S(=O)(=O)c1ccc(Cl)cc1	7.1%
CCc1nnc(NC(=O)CSc2nnc(-c3ccc(OC)cc3)n2C)s1	6.2%
COc1ccc(NC2CC(=O)N(C(C)C)C2=O)cc1 (centres undefined)	-9.7%
CC(=NNC(=S)N1CCCCC1)c1cccc(C)n1	0.3%
CC1Oc2ccccc2N(CC(=O)N2CCCc3ccccc32)C1=O (centres undefined)	12.3%
CN1C(=O)NC(c2cccc(F)c2)C2=C1CC(C)(C)CC2=O (centres undefined)	5.8%
CCCNC(=O)c1cccc(COCC(F)(F)C(F)F)c1	0.2%
CC(C)CC(=O)Nc1nnc(SCC(=O)Nc2nccs2)s1	10.8%
S=C(NCCCN1CCOCC1)N1CCOCC1	-16.3%
COc1ccc(S(=O)(=O)N2CCCCCC2)cc1C(=O)NCCOc1ccc(C)cc1	-9.7%
Cc1ccccc1NC(=O)CSc1nnc(CNC(=O)c2ccc3c(c2)OCO3)n1C	-14.9%
CC1=C(C(=O)OC2CCCC2)C(c2ccccc2C(F)(F)F)CC(=O)N1 (centres undefined)	-11.7%
CNC(=O)c1c(I)c(C(=O)NCC(=O)Nc2c(I)c(C(=O)O)c(I)c(C(=O)NCCO)c2I)c(I)c(N(C)C(C)=O)c1I	-15.5%&2.3%

Records listed so far that bear a hit mark in VDR inhibitor.
SMILES	VDR inhibitor
COc1cccc(-c2nc(N(C)C)c3ccccc3n2)c1	56.2µM*
CCOC(=O)COc1ccc(Br)cc1/C=C/c1[nH]c(=O)[nH]c(=O)c1[N+](=O)[O-]	14.1µM*
Cc1ccc(C)c(OCC(=O)Nc2ccccc2C(=O)NC2CC2)c1	89.1µM*
CN(C)C(=O)/N=N/C(=O)N(C)C	6.31µM*
